CSC inhib – cancer stem cell viability inhibitors, primary screen, luminescence; cancer stem cell-like cells viability; inhibition, % at 7.5 µM; 300,000 tested, 1.1% active; AID 2717, 2010;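 active = mean at 75% or more and at least half the replicates too; tested in HMLE shEcad cells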;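 note: 0% = median of negative and 100% = median of positive control wells; the first replicate is given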
Env fusion inh – inhibitors of HIV-1 Env-driven cell-cell fusion, primary screen, HeLa-JRFL effector, CEM21 target cells, luciferase. 360,000 tested, 1.1% active. AID 651610, 2012. inhibition, % at 12.3 µM;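 active = mean replicate inhibition score of at least 50 and every replicate individually at or above 50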;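 note: 0% = plate neutral controls and 100% = maraviroc near 300 nM; one replicate is shown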
MT1-MMP act inh – blockers of MT1-MMP proenzyme processing, primary screen, HT1080 RFP-PRO-GFP cells, GFP/RFP fluorescence; GFP/RFP ratio change, % at 20 µM; AID 651647, 2012; Matrix metalloproteinase-14 (Homo sapiens), P50281; 360,000 tested, 0.061% active; GFP/RFP ratio fluorescence, overnight; percent of plate control window, DMSO zero;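 active = GFP/RFP ratio change of at least 30% with cell ATP level not reduced by more than half and red fluorescence within 50% of control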; note: strong numbers were not always called active
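Assay system: RFP-PRO-GFP reporter HT1080 cells; read-out basis: GFP/RFP fluorescence ratio; benchmarks: DMSO wells and RFP-L50D-GFP cells; doses: 20 µM single dose, 1% DMSO; schedule: overnight cell settling, then overnight compound exposure, 37 °C, 5% CO2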
UUG fidelity – modulators of yeast start codon fidelity, primary screen, whole organism, S. cerevisiae, single point, plate reader; 350,000 tested, 0.13% active; S. cerevisiae UUG-firefly luciferase reporter, luminescence/redox ratio; activity score, % at 18.7 µM;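 active = replicate mean at a twofold rise or more, about +100% in these data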;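 note: firefly luciferase made from a UUG start codon reports start codon fidelity; reporter light over untreated wells divided by growth signal over untreated wells; some hits fall short of that in this replicate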
eIF4H inh – human eIF4H binding inhibitors, primary screen, translation initiation inhibitor project, biochemical, uHTS, fluorescence polarization. Eukaryotic translation initiation factor 4H (Homo sapiens), Q15056. eIF4H fluorescence polarization binding assay. inhibition, % at 35 µM. 290,000 tested, 0.94% active. AID 2012, 2009;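 active = 50% or more with normal probe brightness, or confirmed in later tests; about a fifth of its hits are not listed in these tables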;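 note: calls also rest on retests at 20 µM and on dose response follow-up; 0% = protein and probe with vehicle and 100% = probe without protein; strong numbers were not always called active; many hits fall short of the cut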
Rce1 inh – yeast Rce1p protease inhibitors, primary screen, biochemical, fluorescence, cell-free homogeneous. CAAX prenyl protease 2 (Saccharomyces cerevisiae (strain ATCC 204508 / S288c)), Q03530. yeast membranes, quenched prenylated peptide cleavage fluorescence. calls only. 290,000 tested, 0.27% active. AID 2563, 2010;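 active = fall in fluorescence gain of 50% or more versus controls, with final raw signal at or below 3038400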;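 note: plate controls were neutral control wells for no effect and wells lacking membranes for full effect; tested at 10 µM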
Target sequence (Q03530 whole entry, looked up): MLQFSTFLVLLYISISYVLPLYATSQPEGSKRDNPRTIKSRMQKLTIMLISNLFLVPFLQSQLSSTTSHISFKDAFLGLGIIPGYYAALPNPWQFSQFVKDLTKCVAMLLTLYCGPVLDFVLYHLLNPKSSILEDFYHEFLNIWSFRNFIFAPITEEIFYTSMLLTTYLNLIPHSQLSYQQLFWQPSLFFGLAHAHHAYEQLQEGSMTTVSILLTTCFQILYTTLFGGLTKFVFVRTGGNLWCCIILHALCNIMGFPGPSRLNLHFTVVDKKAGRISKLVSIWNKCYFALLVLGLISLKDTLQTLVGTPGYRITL
PABP polyA inh – PABP poly(A) RNA binding inhibitors, primary screen, biochemical, fluorescence polarization, uHTS; inhibition, % at 35 µM; 290,000 tested, 1% active; Polyadenylate-binding protein 1 (Homo sapiens), P11940;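 active = 50% or more with normal probe brightness, or confirmed in later tests; about a fifth of its hits are not listed in these tables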;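 note: calls also rest on retests at 20 µM and on dose response follow-up; controls were probe without protein and protein plus probe with vehicle; some compounds called inactive have numbers as strong as hits; many hits fall short of the cut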
Target sequence (P11940 whole entry, looked up): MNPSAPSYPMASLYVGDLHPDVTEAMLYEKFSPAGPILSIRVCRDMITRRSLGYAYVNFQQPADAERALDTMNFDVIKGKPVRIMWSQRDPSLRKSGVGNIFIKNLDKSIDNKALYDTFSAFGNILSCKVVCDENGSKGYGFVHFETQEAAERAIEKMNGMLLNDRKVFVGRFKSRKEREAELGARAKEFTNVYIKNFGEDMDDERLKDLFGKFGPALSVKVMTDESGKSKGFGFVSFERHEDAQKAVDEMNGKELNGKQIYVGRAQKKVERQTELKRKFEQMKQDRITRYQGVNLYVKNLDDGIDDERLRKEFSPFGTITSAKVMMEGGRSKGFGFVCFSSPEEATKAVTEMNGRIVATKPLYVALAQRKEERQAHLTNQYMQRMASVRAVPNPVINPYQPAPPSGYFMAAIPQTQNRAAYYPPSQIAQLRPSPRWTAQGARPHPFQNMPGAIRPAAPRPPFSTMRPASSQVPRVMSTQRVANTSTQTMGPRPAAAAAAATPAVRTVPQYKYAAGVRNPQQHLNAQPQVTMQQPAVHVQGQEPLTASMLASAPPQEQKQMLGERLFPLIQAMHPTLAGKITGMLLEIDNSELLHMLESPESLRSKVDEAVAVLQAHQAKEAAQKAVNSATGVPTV
eIF4H inh retest – recorded beside eIF4H inh, whose call it bears; inhibition, %; compound at 20 µM; confirmation average;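 mean of two retest wells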
PABP polyA inh retest – further read-out of PABP polyA inh, marked with its call; inhibition, %; compound at 20 µM; confirmation repeats;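 mean of two retest wells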
MT1-MMP act inh RFP – second read-out of MT1-MMP act inh, no call of its own (marks repeat the call); RFP signal change, %; measured here: RFP expression control read;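 0 = vehicle wells; hits needed this value within 50% of zero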
* = called active by the depositor; i = inactive; · = not tested or not shown. An excerpt; rates above refer to the full screens.

Sample of the layout:
SMILES | CSC inhib | Env fusion inh | MT1-MMP act inh | MT1-MMP act inh RFP | UUG fidelity | eIF4H inh | Rce1 inh | PABP polyA inh | others
O=C(NCc1cccc(Br)c1)C1CC(c2ccccc2C(F)(F)F)=NO1 (stereo unspecified) | 56.5 | -56.5 | 3.3 | -0.4 | 4.1 | -1.8 | i | -1.3
O=S(=O)(NCc1ccccn1)c1ccccn1 | -2.1 | -10.4 | 3.7 | 6.7 | -11.7 | 5.2 | i | 4.8

Main list, repeating the preview:
SMILES | CSC inhib | Env fusion inh | MT1-MMP act inh | MT1-MMP act inh RFP | UUG fidelity | eIF4H inh | Rce1 inh | PABP polyA inh | others
O=C(NCc1cccc(Br)c1)C1CC(c2ccccc2C(F)(F)F)=NO1 (stereo unspecified) | 56.5 | -56.5 | 3.3 | -0.4 | 4.1 | -1.8 | i | -1.3
O=S(=O)(NCc1ccccn1)c1ccccn1 | -2.1 | -10.4 | 3.7 | 6.7 | -11.7 | 5.2 | i | 4.8
COc1ccc2nc(SCC(=O)Nc3ccc(S(=O)(=O)Nc4onc(C)c4C)cc3)[nH]c2c1 | -7.1 | · | -1.2 | 1.7 | -9.3 | 6.3 | i | 6.2
Cc1ccc(Nc2nnc(SCC(=O)Nc3ncc(S(=O)(=O)c4ccc([N+](=O)[O-])cc4)s3)s2)cc1 | · | · | -2.6 | 2.1 | · | -5.9 | i | -0.8
O=c1c(O)c(-c2ccccc2)oc2cc(O)ccc12 | · | -33.7 | -10.0 | -6.9 | 2.1 | · | · | ·
CCOC(=O)c1cnc2c(c(C)nn2C)c1Oc1ccc(Cl)cc1 | -9.6 | 6.5 | -6.5 | -4.9 | -6.2 | -0.9 | i | 11.4
Cc1cc(OCC(=O)N2CCC(O)CC2)c2c(C)cc(=O)oc2c1 | 16.7 | · | -2.9 | 1.9 | -0.7 | 0.8 | i | -5.5
O=C(OCCN1C(=O)c2ccccc2C1=O)[C@@H]1CC(O)CN1S(=O)(=O)c1ccccc1[N+](=O)[O-] (stereo partly specified) | -15.7 | · | -3.7 | -2.4 | -8.3 | · | · | ·
Cc1ccc(C(=O)COc2cccc(NC(=O)c3ccco3)c2)cc1 | -1.8 | · | 6.0 | -0.5 | -19.7 | 11.8 | i | 9.4
COc1ccc(-c2n[nH]c3c2CN(C(=O)c2ccccc2)CC3)cc1 | 8.5 | 1.9 | 1.2 | -1.9 | -24.7 | -10.0 | i | 0.5
CCOC(=O)N1CCN(S(=O)(=O)c2ccc3c(c2)SCC(=O)N3)CC1 | -20.1 | 39.3 | 8.0 | -0.1 | -3.0 | -2.8 | i | -4.0
Cc1cc(C)cc(N(C(=O)c2ccc(Br)o2)C2C=CS(=O)(=O)C2)c1 (stereo unspecified) | 0.5 | -5.3 | 4.7 | 2.4 | · | -5.1 | i | 8.5
O=S(=O)(c1cc(F)ccc1F)N1CCN(C2CCCCC2)CC1 | 29.0 | 15.8 | 2.2 | -0.9 | -10.0 | -9.9 | i | -15.4
O=C(CN1C(=O)NC2(CCCC2)C1=O)Nc1cccc(-c2nnc3n2CCCCC3)c1 | -14.3 | · | 4.2 | 4.8 | -14.9 | -20.8 | i | -3.8
O=C(COc1ncnc2ccccc12)Nc1cc([N+](=O)[O-])ccc1F | -6.6 | 10.2 | -1.1 | 1.2 | -23.3 | -13.3 | i | 9.6
N/C(=N\OC(=O)c1ccc(F)cc1)c1cccc([N+](=O)[O-])c1 | -15.8 | -31.7 | -0.3 | 0.1 | -1.3 | 23.9 | i | 6.1
COc1ccc(-c2ncccc2OC(=O)C23CC4CC(CC(C4)C2)C3)cc1OC | 1.1 | · | 6.3 | 1.1 | -0.5 | -7.2 | i | 0.7
COC(=O)c1c(NC(=O)c2cccc([N+](=O)[O-])c2)sc(C(N)=O)c1C | · | 6.2 | -2.9 | 2.4 | · | 62.8* | · | 28.4* | eIF4H inh retest=94.1*;PABP polyA inh retest=94.5*
COc1ccc(N2CCN(S(=O)(=O)CCNC(=O)COc3ccccc3)CC2)cc1 | 3.7 | 8.2 | -3.0 | -0.9 | -9.7 | · | i | ·
O=C1COc2ccc(S(=O)(=O)CCC(=O)N3CCN(c4cccc(C(F)(F)F)c4)CC3)cc2N1 | -18.0 | 5.4 | -4.6 | -27.5 | 1.1 | -12.2 | i | -12.8
CC1(C)c2[nH]c3ccccc3c2C[C@@H]2C(=O)N(Cc3ccccc3F)C(=O)N21 | 4.7 | -8.6 | 4.9 | -6.6 | -10.5 | · | i | ·
O=C(c1ccc(S(=O)(=O)Nc2ccccc2)cc1)N1CCCC1 | -13.0 | -13.0 | -0.9 | -0.2 | -11.4 | · | i | ·
Cc1cc(Br)ccc1NC(=S)NC1CCCC1 | -2.7 | -7.5 | -0.7 | -1.3 | -38.3 | -4.3 | i | 4.1
Cc1cc(C)c(S(=O)(=O)c2c(C)cccc2C)c(OCC(C)C)n1 | 19.6 | 77.6* | -12.7 | -10.3 | -14.0 | -7.3 | i | 1.1
Cc1ccc(OCCN2C(=O)c3ccccc3C2=O)c(C)c1 | 15.4 | -45.6 | 8.2 | -2.2 | -7.8 | -4.3 | i | 6.4
COc1ccccc1CN1CC(C(=O)NCCN(C)CCc2ccccc2)CCC1=O (stereo unspecified) | -8.5 | 4.8 | -1.1 | -0.8 | -6.9 | -11.3 | i | 0.7
CCCC1(C(=O)OCC)NC(c2ccc(O)cc2)C2C(=O)N(c3ccc4c(c3)OCCO4)C(=O)C21 (stereo unspecified) | -1.9 | · | 2.5 | 1.0 | 1.1 | -0.2 | i | 0.2
CC1(C(=O)O)CCCN1C(=O)c1cccc(OC(F)(F)F)c1 (stereo unspecified) | · | -0.1 | 2.4 | 4.6 | -17.1 | · | · | ·
O=C(COC(=O)CSc1ccc([N+](=O)[O-])cc1)NCCc1ccccc1 | -3.4 | 34.1 | -1.8 | 4.2 | -9.7 | · | i | ·
COc1ccc(CNC(=O)C(C)N2CCN(S(=O)(=O)c3ccccc3F)CC2)cc1 (stereo unspecified) | -0.3 | -17.0 | 5.5 | -1.4 | 13.4 | · | · | ·
CCOC(=O)Cc1csc(SCC(=O)NC2CCCC(C)C2C)n1 (stereo unspecified) | -11.2 | -0.5 | 0.2 | 0.7 | · | 2.0 | i | 3.4
COC(=O)c1ccc(Cn2nc(-c3ccc(C)c(C)c3)ccc2=O)cc1 | -5.0 | -31.7 | 0.0 | 1.3 | -11.5 | 0.1 | i | -20.1
O=C(Nc1ccc(Oc2cccnc2)cc1)C1CCN(Cc2ccccc2)CC1 | 11.4 | 9.1 | 0.1 | -5.8 | -7.5 | -9.9 | i | 1.5
CCN(CC)S(=O)(=O)c1cc(C(=O)Oc2cccc(-c3cnc4ccccc4n3)c2)ccc1Br | -12.0 | · | 3.2 | 8.0 | -37.4 | -7.1 | i | 4.1
O=C(COc1ncnc2ccccc12)N1CCN(C(=O)c2ccco2)CC1 | · | · | 4.5 | 9.0 | -3.6 | -4.8 | i | -1.9
CCOc1ccc(Nc2nc(N)nc(CSC(=S)N3CCOCC3)n2)cc1 | -1.0 | -3.3 | 2.3 | -4.0 | -17.6 | -8.3 | i | 0.7
COCCNC(=O)Cn1nc(-c2ccc(C)cc2)c2ccccc2c1=O | 3.1 | -0.5 | -2.7 | -1.8 | 5.1 | -2.2 | i | -1.6
Cc1ccc(C(=O)NNC(=O)c2ccncc2)cc1S(=O)(=O)N1CCOCC1 | 1.7 | -15.6 | 4.3 | -1.8 | -17.7 | · | i | ·
CCCOc1ccc([N+](=O)[O-])c(N)c1 | 5.6 | -1.4 | -0.9 | 2.6 | -5.7 | 5.3 | i | -6.0
CCN(CC)CCNc1ccc2nnc(CCNS(=O)(=O)c3ccc(C)cc3)n2n1 | -4.5 | -9.2 | -0.6 | 3.2 | · | 6.5 | · | -11.4
COc1cc(C#N)c(NC(=O)CN2CCC(C(N)=O)CC2)cc1OC | 4.2 | -17.0 | -2.8 | 2.1 | · | 8.3 | i | -3.1
Cc1ccc(NC(=O)CSc2ncnc3ccccc23)cc1S(=O)(=O)N1CCCCCC1 | 13.0 | · | -5.8 | -24.1 | -14.9 | -10.6 | i | -1.2
CCN(CC)c1ccc([N+](=O)[O-])cc1C(=O)O | -10.8 | -13.3 | -1.1 | 1.4 | -10.8 | -11.5 | i | -6.0
CCCCCOc1ccc(NS(C)(=O)=O)cc1 | -2.5 | · | -0.7 | 3.2 | -4.8 | -1.6 | i | 6.3
CCOC(=O)c1ccc(NC(=O)C2CC(=O)N=C(N)S2)cc1 (stereo unspecified) | -0.1 | -9.3 | 3.0 | -0.7 | · | -12.2 | i | -13.9
CN(C)S(=O)(=O)c1ccc(C(=O)NCc2nnc(SCC(=O)N3CCCCCC3)o2)cc1 | 4.1 | -1.3 | 0.6 | -3.7 | 3.2 | -6.9 | i | 0.0
CC(=O)C1=C(Nc2ccccc2)CC(C)(O)C(C(C)=O)C1c1ccccc1 (stereo unspecified) | -11.8 | 15.1 | 1.6 | 6.0 | -7.7 | -1.4 | i | 3.6
Cc1cc(C)c(S(=O)(=O)Nc2ncccc2C)c(C)c1 | 0.7 | -0.7 | -4.8 | -4.2 | -18.1 | -12.2 | i | 4.4
COCC(Cc1ccccc1)NC(=O)Cn1cc(C)c(=O)[nH]c1=O (stereo unspecified) | · | -15.8 | 4.8 | 6.7 | -15.7 | · | · | ·
O=C(O)c1c(NC(=O)N2CCOCC2)sc2c1CCCC2 | 0.7 | 20.7 | 3.2 | 6.4 | -33.9 | 0.0 | i | -3.5
CCCC(=O)C1=C(O)C(C(=O)OC)C(C)(C)CC1=NC (stereo unspecified) | -12.7 | · | 0.5 | 1.1 | -4.3 | 0.8 | i | 0.8
COc1ccc(/C=N/OCC(=O)NCc2cccs2)c(OC)c1 | -13.1 | · | 5.9 | 7.6 | · | -5.8 | i | -5.5
CC(=O)c1cccc(NC(=O)c2cc(S(=O)(=O)N3CCOCC3)cs2)c1 | -1.6 | -5.2 | 7.5 | -5.2 | -15.3 | 9.7 | i | 6.7
O=C1CCCC/C1=C\Nc1ccc(S(=O)(=O)Nc2cnc3ccccc3n2)cc1 | -4.3 | -3.0 | -9.7 | -8.4 | -11.9 | 54.8 | i | 17.2 | eIF4H inh retest=32.5;PABP polyA inh retest=12.4
O=C(NCc1cccnc1)c1ccc(NC(=O)c2ccco2)cc1 | -0.4 | 8.4 | -1.9 | 0.4 | -14.5 | -4.3 | i | -0.5
Cc1ccc(O)c(C(=O)c2cc(C#N)c3nc4ccccc4n3c2)c1 | 17.6 | -2.6 | -110.1 | 6.3 | · | 114.0 | i | -2.1 | eIF4H inh retest=-5.1;PABP polyA inh retest=1.0
O=C(Nc1ccc2oc(-c3ccccc3)nc2c1)c1cccnc1 | 3.3 | · | 3.3 | -4.9 | -22.6 | -5.2 | i | 3.8
CC(=O)c1cccc(NC(=O)Cn2cnc(S(=O)(=O)N3CCC(C)CC3)c2)c1 | -11.7 | · | 7.2 | -3.5 | -9.7 | -2.5 | i | -10.4
COCC(C)N=C1SCCN1Cc1ccccc1 (stereo unspecified) | -12.2 | -5.1 | -0.5 | 2.5 | -18.0 | -2.8 | i | -6.7
